Lassa entry inh – inhibitors of Lassa virus binding or cell entry; AID 540256; Lassa virus pseudotype entry inhibition, cell reporter; control for the full effect not named in the record; Potency, µM (top dose mostly 37.9 µM), inactives show at the highest dose activity change, negative = inhibition, most hits filed as inhibitors; 300,000 tested, 1.2% active; active means well fitted inhibition curve with a large enough effect; inconclusive means small, poorly fitted or top-dose-only effect, or effect the other way; inactive means flat fitted curve, though single readings scatter; tested in HEK293 cells; note: % is set by controls: 0 for no effect and ±100 for the full control effect; nearly all actives have a fitted effect of over 50% in size; luciferase read-out
Marburg entry inh – blocks Marburg virus binding to or entry into cells; Potency, µM (doses to about 37.8 µM), without a hit: top-dose activity change, negative = inhibition, usual class: inhibitors; Marburg virus pseudotyped entry inhibition, cell reporter; control for the full effect not named in the record; about a third of the inactives were read at about 46 µM; 300,000 tested, 1.8% active; AID 540276; active = well fitted inhibition curve with a large enough effect; inconclusive = small, poorly fitted or top-dose-only effect, or effect the other way; inactive = flat fitted curve, though single readings scatter; tested in HEK293 cells; about a fifth of its hits are not listed in these tables; note: % is set by controls: 0 for no effect and ±100 for the full control effect; luciferase read-out
RE007 growth inh – less growth of the S. pombe RE007 Vpr strain; S. pombe RE007 Vpr strain, BacTiter-Glo ATP luminescence, 24 h; control for the full effect not named in the record; Potency, µM (highest dose often 92.2 µM), for inactives: at the top dose activity change, negative = less growth; 360,000 tested, 0.21% active; AID 651644; active = well fitted falling curve with a large enough effect; inconclusive = small, poorly fitted or top-dose-only effect; inactive = no such curve, though single readings can be large or run the other way;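 note: % is set by controls: 0 for no effect and ±100 for the full control effect; nearly all actives have a fitted effect of over 50% in size; the assay follows cell death caused by Vpr and the record does not say whether a fall means rescue or toxicity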
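Fission yeast RE007 carrying one integrated HIV-1 vpr copy, seeded at OD 0.01 in PMG+AL medium with 23 nL pinned compound. Grown 24 h at 30 degrees; viability read by BacTiter-Glo luminescence after 5 min.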
Cruzain inh noDet – cruzain (T. cruzi) inhibition without detergent; P25779; purified cruzain, Z-FR-AMC fluorescence, no detergent; Potency, µM, inactives show max response, negative = inhibition, actives largely listed as inhibitors; 200,000 tested, 2.3% active; active = well fitted curve in the direction sought with a large enough effect; inconclusive = small, poorly fitted or top-dose-only effect, or another doubt; inactive = no such curve, though single readings can be large; an effect the other way counts as inactive or inconclusive;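 note: plate controls were enzyme without inhibitor for no effect and buffer without enzyme for full effect; nearly all actives have a fitted effect of over 40% in size; top concentration of the series not given in the record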
Target sequence (P25779 123-467 limits assumed): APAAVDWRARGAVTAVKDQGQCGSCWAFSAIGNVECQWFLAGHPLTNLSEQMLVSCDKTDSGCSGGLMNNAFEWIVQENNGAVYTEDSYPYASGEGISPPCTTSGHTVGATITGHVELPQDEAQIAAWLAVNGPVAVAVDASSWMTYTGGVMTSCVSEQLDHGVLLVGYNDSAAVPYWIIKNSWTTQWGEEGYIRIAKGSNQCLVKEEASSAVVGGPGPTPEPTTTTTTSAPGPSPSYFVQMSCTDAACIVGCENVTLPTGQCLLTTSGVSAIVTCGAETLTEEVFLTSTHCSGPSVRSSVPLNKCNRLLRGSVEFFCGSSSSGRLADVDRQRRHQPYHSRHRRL
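Purified cruzain at 1.5 nM, pre-incubated 15 min with compound at room temperature in 100 mM sodium acetate pH 5.5, 5 mM DTT, 0.00005% Triton X-100. Reaction started with 2 uM Z-FR-AMC; AMC fluorescence increase over 60 s gives rate.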
SARS PLpro yeast – inhibitors of SARS-CoV papain-like protease in yeast | S. cerevisiae expressing SARS-CoV PLpro, growth rescue; control for the full effect not named in the record | AID 485353 | 330,000 tested, 0.19% active | Potency, µM (top dose mostly 32.9 µM), for the others: at the highest dose activity, positive = growth rescue; note: 0% is about no effect; nearly all actives have a fitted effect of over 55% in size; growth read by luminescence after 48 h
NS1 inh – inhibitors of influenza NS1 protein function | Potency, µM (doses to about 46.1 µM), for the others: at the highest dose activity, positive = more growth | 270,000 tested, 0.4% active | S. cerevisiae slowed by influenza A NS1, growth recovery by OD600; note: actives are rising curves; nearly all actives have a fitted effect of over 50% in size
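OD600 was taken as the measure of yeast growth restored by compound in an NS1-expressing S. cerevisiae strain. Cells had been washed out of glucose medium and diluted 1:100 into galactose -URA medium, pH 6.0.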
2A StopGo – lowers the luciferase signal of an FMDV 2A StopGo reporter; 410,000 tested, 1.2% active; AID 1159524; Potency, µM (doses to about 57.9 µM), without a hit: at the highest dose signal change, negative = less light; human cells with a luciferase reporter of 2A StopGo recoding; control for the full effect not named in the record; active = well fitted falling curve with a large enough effect; inconclusive = small, poorly fitted or top-dose-only effect; inactive = no such curve, though single readings can be large or run the other way; tested in HEK293T cells; note: % is set by controls: 0 for no effect and ±100 for the full control effect; nearly all actives have a fitted effect of over 45% in size; luciferase light after 4 h
Cruzain Triton – blocks cruzain activity in presence of Triton detergent; Potency, µM, for inactives: max response, negative = inhibition, usual class: inhibitors; purified cruzain, Z-FR-AMC fluorescence, 0.01% Triton; 200,000 tested, 0.43% active; active = well fitted curve in the direction sought with a large enough effect; inconclusive = small, poorly fitted or top-dose-only effect, or another doubt; inactive = no such curve, though single readings can be large; an effect the other way counts as inactive or inconclusive;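 note: plate controls were neutral wells for no effect and buffer without enzyme for full effect; nearly all actives have a fitted effect of over 40% in size; top concentration of the series not given in the record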
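Detergent-containing run (0.01% Triton X-100) in acetate buffer pH 5.5 with 5 mM DTT: enzyme at 1.5 nM final, 15 min compound preincubation at room temperature, then 2 uM Z-FR-AMC substrate. Activity taken as 60 s fluorescence increase at 360/450 nm.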
* hit, by the source's call; u = inconclusive; x = not tested or not shown; [ ] = another dose, or the depositor's remark. Unless noted, calls come from the whole dose curve; as a rule, active means well fitted rising curve with a large enough effect; inconclusive means small, poorly fitted or top-dose-only effect; inactive means no such curve, though single readings can be large or run the other way. Potency is the fitted concentration of half-maximal effect.

Order of results – NS1 inh	2A StopGo	SARS PLpro yeast	Lassa entry inh	Cruzain inh noDet	RE007 growth inh	Marburg entry inh	Cruzain Triton
S=C(NC1CCCCC1)NN1CCCCCC1
 : x	-9.2%	x	-6.0%	x	-10.3%	-29.1%	x
O=C1N(C2CCCC2)C[C@@H]2C[C@@H](c3cn[nH]c3-c3ccc(Cl)cc3)N3CCC[C@@]123
 : 0.7%	8.1%	0.7%	-3.2%	x	-15.5%	-11.1%[46.1 µM]	x
CSc1ccc(-c2sc(Nc3ccccc3)n[n+]2-c2ccccc2)cc1
 : -0.7%	-13.0%	-2.2%	x	x	-5.4%	x	x
Cc1cc(C)c(S(=O)(=O)NNC(=O)C2CCN(Cc3ccccc3)CC2)c(C)c1
 : 9.2%	-13.4%	-3.0%	-6.3%	-0.9%	3.9%	u	-0.8%
Cc1cc(C2=NNC(=Nc3ccc(S(=O)(=O)N4CCOCC4)cc3)SC2)c(C)n1C
 : u	-6.2%	0.0%	u	x	-18.3%	u	x
C(=C\c1ccccc1)/CSc1nnc(-c2ccncc2)n1Cc1ccco1
 : -58.8%	-7.4%	-10.0%	-21.3%	0.8%	-4.6%	-1.4%	-6.9%
CCOC(=O)C1=C(C)N(C)C(=O)NC1c1ccccc1OC (configuration not stated)
 : -3.7%	-7.8%	1.1%	19.4%	-0.2%	-18.4%	6.9%	-3.9%
COC(=O)CSc1nc(NC(C)=O)nc(C)c1Br
 : -2.3%	-4.4%	-12.7%	14.3%	-5.0%	10.4%	-3.9%	3.5%
O=C(OCC(=O)N1CCC(Cc2ccccc2)CC1)c1cccnc1Cl
 : x	9.7%	-0.4%	7.4%[46.1 µM]	x	11.2%	14.0%[46.1 µM]	x
Cc1ccc(S(=O)(=O)CC(=O)N(CCCN2CCOCC2)c2nc3c(F)cccc3s2)cc1
 : x	6.2%	-3.2%	15.6%	x	1.8%	3.7%[46.1 µM]	x
COc1cccc(CNC(=O)COC(=O)c2nn(C)c(=O)c3ccccc23)c1
 : x	-2.7%	18.0%	-15.8%[46.1 µM]	x	-4.6%	-5.1%[46.1 µM]	x
Cc1noc(C)c1S(=O)(=O)N1CCN(Cc2ccc3c(c2)OCO3)CC1
 : -0.3%	-15.8%	5.5%	x	-9.0%	-5.3%	x	0.4%
COc1cccc(C(=O)Nc2cc(C)nn2-c2ccccc2)c1OC
 : -5.3%	-22.8%	2.1%	u	x	-22.3%	u	x
O=C(CSc1cn[nH]n1)Nc1nc2ccccc2s1
 : 8.3%	53.3%[activator]	-1.0%	x	x	16.4%	-17.6%[46.1 µM]	x
CCCC(=O)Nc1ccc(N2CCN(C(=O)CCC)CC2)cc1
 : -10.1%	0.8%	1.2%	12.2%	-2.9%	10.3%	2.6%	4.3%
CN1CCSc2ccc(C(=O)Nc3cccc(F)c3)cc21
 : -34.3%	3.7%	-3.0%	u	x	u	u	x
CCCCc1ccc(NC(=S)NCCCN2CCOCC2)cc1
 : 0.3%	-17.2%	-1.3%	x	x	5.9%	x	x
Cc1ccccc1Nc1cc(C(=O)NC2CCC(C)CC2)c2ccccc2n1 (configuration not stated)
 : x	42.8%[activator]	x	21.2%[46.1 µM]	0.1%	x	u	-4.4%
Cc1nc(N2CCN(C(=O)c3ccc(Cl)cc3)CC2)c(C#N)c2c1COC(C)(C)C2
 : -2.0%	u	-2.8%	u	u	-1.8%	u	-2.4%
O=c1[nH]c(CN2CCN(c3ccccc3)CC2)nc2scc(-c3ccccc3)c12
 : 0.5%	-23.3%	10.8%	u	u	x	u	-3.5%
CCOC(=O)c1nc(C)c(C(C)=O)s1
 : -7.1%	-13.5%	-4.3%	x	x	1.5%	x	x
CC(C(=O)Nc1ccc(S(=O)(=O)Nc2ncccn2)cc1)N1C(=O)c2ccccc2S1(=O)=O (configuration not stated)
 : x	0.3%	-1.0%	24.4%	x	-6.8%	u	x
Cc1ccc(C(=O)c2nc3c(n2O)CCCC3)cc1
 : 8.2%	14.2%	-2.1%	1.2%	-2.8%	-26.9%	u	-1.3%
O=S(=O)(c1ccccc1)c1nc(-c2ccco2)oc1N1CCOCC1
 : -4.2%	9.8%	5.3%	10.8%	-4.5%	-1.1%	8.2%	-0.5%
O=S(=O)(c1ccc(Oc2ccc(S(=O)(=O)N(CCO)CCO)cc2)cc1)N(CCO)CCO
 : x	2.8%	1.9%	x	x	-12.4%	0.0%	x
CC(=O)O[C@H]1CC[C@@]2(C)[C@H](C1)C(=O)C[C@H]1[C@@H]3CC[C@@H]4[C@@H](CN5C[C@@H](C)CC[C@H]5[C@@]4(C)O)[C@@H]3C[C@@H]12
 : -0.4%	-12.1%	0.3%	x	x	-13.2%	x	x
COc1ccc(CC(=O)NC(C)(C)CC(C)=O)cc1OC
 : -2.7%	0.0%	2.3%	6.4%	3.8%	-9.7%	2.4%	6.2%
COc1ccc(CC2(CO)CCN(Cc3cnc(-c4ccccc4C)nc3)CC2)cc1
 : -0.6%	u	-0.5%	x	x	9.8%	x	x
CCN(Cc1ccncc1)C(=O)c1cc(Br)cc(Br)c1O
 : -1.2%	4.1%	0.3%	0.4%[46.1 µM]	x	-17.6%	-8.5%[46.1 µM]	x
CCN(CC)S(=O)(=O)c1ccc(OC(C)C)nc1
 : 1.8%	23.5%	-4.3%	-1.9%	4.7%	19.5%	14.3%	-1.1%
CCN1CCN(C(=O)Cc2coc3cc(C)cc(C)c23)CC1
 : 6.1%	-15.5%	-3.0%	2.7%	-19.0%	-8.5%	21.5%[46.1 µM]	4.1%
Cc1ccc(S(=O)(=O)Cc2ccc(C(=O)NCCCN3CCN(C)CC3)o2)cc1
 : 3.8%	-16.0%	-5.4%	1.8%	-1.5%	6.0%	6.3%	3.1%
Cc1ccc(S(=O)(=O)c2nnn3c2nc(N2CCCC2)c2sccc23)cc1C
 : x	-17.9%	x	9.2%[46.1 µM]	-5.3%	x	x	-0.3%
COc1cc(/C=C(\C#N)C(=O)Nc2ccccn2)ccc1O
 : 0.3%	74.4%[activator]	1.8%	x	x	-5.5%	u	x
Cc1nc(N/N=C/c2ccccn2)sc1C
 : -46.7%	-29.9%	-86.4%	1.78µM*	3.4%	15.8µM*	1.3µM*	-7.8%
O=C(O)c1ccc(-c2nc(-c3ccccc3)c(-c3ccccc3)[nH]2)cc1
 : 1.1%	-8.7%	6.7%	u	u	2.2%	13.6%	-27.9%
Cc1cccc(/C=C2\Sc3ccc(C(=O)NCC4CCCO4)cc3N(C)C2=O)c1 (configuration not stated)
 : 10.5%	-25.3%	-12.7%	u	x	2.4%	7.08µM*	x
Cc1c(C)c2c(OCC(=O)NCCCO)cc3c(c2oc1=O)CCC(C)(C)O3
 : 1.4%	19.3%	1.0%	5.7%[46.1 µM]	x	-12.9%	u	x
C/C(=N\NC(=O)c1nnn(-c2nonc2N)c1COc1ccc(F)cc1)c1ccc(Cl)cc1
 : 2.4%	2.5%	-2.4%	u	x	-10.9%	-12.4%	x
COc1ccc(NC(=O)CSc2nnc(C3CCCCC3)n2-c2ccccc2)cc1
 : -4.3%	26.3%	-4.0%	-23.8%	-0.1%	7.5%	u	-4.8%
CC(=O)CC(c1ccccc1[N+](=O)[O-])c1c(O)c2ccccc2oc1=O (configuration not stated)
 : 0.7%	20.3%	-2.2%	-15.1%[46.1 µM]	x	-8.4%	1.4%[46.1 µM]	x
Fc1cccc(NCc2cn3ccccc3n2)c1
 : -5.1%	2.7%	-7.5%	u	-5.6%	6.8%	u	3.8%
COC(=O)c1ccccc1NC(=S)NC(C)=O
 : 2.6%	-8.5%	0.2%	x	x	-10.1%	x	x
COC(CNc1ncnc2sc(-c3ccccc3)cc12)OC
 : 1.7%	-2.3%	0.6%	x	x	-0.5%	x	x
COc1ccccc1N1CCN(C2CCN(S(=O)(=O)c3ccc(C)cc3)CC2)CC1
 : -3.4%	-21.9%	-0.4%	-17.4%	x	2.4%	u	x
COC(=O)c1sccc1NC(=O)c1cccc(Cl)c1
 : x	-18.5%	x	u	x	3.7%	22.5%	x
COc1ccc(CC2(CO)CCN(C(C)Cc3ccc(Cl)cc3)CC2)cc1 (configuration not stated)
 : 4.5%	-0.6%	-0.5%	-28.0%[46.1 µM]	x	2.2%	u	x
Cc1ccccc1Nc1nnc(SCC(=O)Nc2ccccc2[N+](=O)[O-])s1
 : u	-15.0%	-1.9%	14.1%	-2.8%	-3.1%	18.9%	-5.0%
O=C(NCC1CCCO1)c1cc(C(=O)C2CCCCC2)c[nH]1 (configuration not stated)
 : x	26.9%	-4.1%	u	x	3.2%	10.3%[46.1 µM]	x
CCc1ccc(OCC(=O)Nc2ccncc2)cc1
 : -28.3%	-16.4%	-3.9%	x	x	-13.0%	x	x
CCCCn1c(S(=O)(=O)O)nc2ccccc21
 : 1.2%	-4.3%	2.8%	4.7%	-5.5%	1.0%	u	0.3%
CC1CCC(N2CCN(c3ncccn3)CC2)C1 (configuration not stated)
 : -3.6%	-6.3%	6.0%[6.58 µM]	3.2%	1.0%	6.1%	-23.2%	2.2%
c1ccc(C(c2ccccc2)c2ccncc2)cc1
 : x	-22.3%	x	-18.7%	x	u	u	x
Cc1ccc(NC(=O)CCCNC(=O)c2ccc(Cl)cc2)c(Br)c1
 : -2.8%	-5.2%	-0.8%	3.9%	x	10.8%	-21.2%	x
CCc1ccc(NC(=O)CCn2nc(-c3ccccc3OC)c3c(C)cc(C)nc32)cc1
 : x	-21.6%	x	u	u	x	u	-10.7%
Cc1ccc2nc(-c3cccs3)c(Nc3ccc4c(c3)OCCO4)n2c1
 : x	54.0%[activator]	x	10.8%[46.1 µM]	-29.3%	x	3.7%[46.1 µM]	-0.2%
Cc1cccc(OCC(O)CN2C(C)(C)CC(O)CC2(C)C)c1C (configuration not stated)
 : -8.9%	-0.5%	9.3%	-17.0%	14.8%	-8.0%	-29.4%	1.5%

Compounds were not picked by outcome. Share with any hit: about 4.7%.
